High-throughput results: PubChem BioAssay, National Center for Advancing Translational Sciences (NCATS)
Lassa entry inh: Lassa virus entry inhibition | Lassa virus pseudotype entry inhibition, cell reporter; control for the full effect not named in the record | Potency, µM (titrated, usually from 37.9 µM), for inactives: at the highest dose activity change, negative = inhibition, hits mostly inhibitors | hit rate 1.2% among 300,000 | AID 540256; active means well fitted inhibition curve with a large enough effect; inconclusive means small, poorly fitted or top-dose-only effect, or effect the other way; inactive means flat fitted curve, though single readings scatter; tested in HEK293 cells; also: % is scaled to controls: 0 for no effect and ±100 for the full control effect; nearly all actives have a fitted effect of over 50% in size; luciferase read-out
SARS PLpro yeast: blocks SARS-CoV papain-like protease in a yeast assay. S. cerevisiae expressing SARS-CoV PLpro, growth rescue; control for the full effect not named in the record. Potency, µM (series often up to 32.9 µM), inactives show top-dose activity, positive = growth rescue. hit rate 0.19% among 330,000. AID 485353; also: 0% is about no effect; nearly all actives have a fitted effect of over 55% in size; growth read by luminescence after 48 h
Cruzain Triton: inhibitors of Trypanosoma cruzi cruzain with detergent. P25779. hit rate 0.43% among 200,000. Potency, µM, without a hit: max response, negative = inhibition, actives largely listed as inhibitors. purified cruzain, Z-FR-AMC fluorescence, 0.01% Triton; active = well fitted curve in the direction sought with a large enough effect; inconclusive = small, poorly fitted or top-dose-only effect, or another doubt; inactive = no such curve, though single readings can be large; an effect the other way counts as inactive or inconclusive;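 also: plate controls were neutral wells for no effect and buffer without enzyme for full effect; nearly all actives have a fitted effect of over 40% in size; top concentration of the series not given in the record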
Target sequence (P25779 123-467 limits assumed): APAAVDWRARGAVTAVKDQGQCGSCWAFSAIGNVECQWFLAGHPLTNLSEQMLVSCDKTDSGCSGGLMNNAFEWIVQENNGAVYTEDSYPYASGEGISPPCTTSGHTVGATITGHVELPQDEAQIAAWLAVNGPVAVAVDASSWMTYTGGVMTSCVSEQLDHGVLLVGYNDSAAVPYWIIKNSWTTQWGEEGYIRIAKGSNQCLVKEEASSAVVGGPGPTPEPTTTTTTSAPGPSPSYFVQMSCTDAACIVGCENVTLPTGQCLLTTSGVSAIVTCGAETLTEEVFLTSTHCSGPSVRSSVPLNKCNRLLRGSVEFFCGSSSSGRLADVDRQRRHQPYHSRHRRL
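Detergent-containing arm of a paired screen for aggregation-based inhibition: 0.01% Triton X-100 present. Cruzain at 1.5 nM cleaved 2 uM Z-FR-AMC at pH 5.5 with 5 mM DTT; AMC fluorescence gain over 60 s measured activity.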
RE007 growth inh: less growth of the S. pombe RE007 Vpr strain. hit rate 0.21% among 360,000. AID 651644. S. pombe RE007 Vpr strain, BacTiter-Glo ATP luminescence, 24 h; control for the full effect not named in the record. Potency, µM (highest dose often 92.2 µM), for inactives: at the highest dose activity change, negative = less growth; active = well fitted falling curve with a large enough effect; inconclusive = small, poorly fitted or top-dose-only effect; inactive = no such curve, though single readings can be large or run the other way;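 also: % is scaled to controls: 0 for no effect and ±100 for the full control effect; nearly all actives have a fitted effect of over 50% in size; the assay follows cell death caused by Vpr and the record does not say whether a fall means rescue or toxicity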
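Fission yeast RE007 carrying one integrated HIV-1 vpr copy, seeded at OD 0.01 in PMG+AL medium with 23 nL pinned compound. Grown 24 h at 30 degrees; viability read by BacTiter-Glo luminescence after 5 min.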
StopGo reporter: FMDV 2A StopGo reporter, luciferase signal; AID 1159524; Potency, µM (series often up to 57.9 µM), for inactives: top-dose signal change, negative = less light; hit rate 1.2% among 410,000; human cells with a luciferase reporter of 2A StopGo recoding; control for the full effect not named in the record; active = well fitted falling curve with a large enough effect; inconclusive = small, poorly fitted or top-dose-only effect; inactive = no such curve, though single readings can be large or run the other way; tested in HEK293T cells; also: % is scaled to controls: 0 for no effect and ±100 for the full control effect; nearly all actives have a fitted effect of over 45% in size; luciferase light after 4 h
Cruzain inh noDet: inhibitors of Trypanosoma cruzi cruzain without detergent. P25779. purified cruzain, Z-FR-AMC fluorescence, no detergent. Potency, µM, for the others: max response, negative = inhibition, actives largely listed as inhibitors. hit rate 2.3% among 200,000. AID 1476; active = well fitted curve in the direction sought with a large enough effect; inconclusive = small, poorly fitted or top-dose-only effect, or another doubt; inactive = no such curve, though single readings can be large; an effect the other way counts as inactive or inconclusive;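 also: plate controls were enzyme without inhibitor for no effect and buffer without enzyme for full effect; nearly all actives have a fitted effect of over 40% in size; top concentration of the series not given in the record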
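Purified cruzain at 1.5 nM, pre-incubated 15 min with compound at room temperature in 100 mM sodium acetate pH 5.5, 5 mM DTT, 0.00005% Triton X-100. Reaction started with 2 uM Z-FR-AMC; AMC fluorescence increase over 60 s gives rate.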
MARV entry inh: blocks Marburg virus binding to or entry into cells; Marburg virus pseudotyped entry inhibition, cell reporter; control for the full effect not named in the record; about a third of the inactives were read at about 46 µM; hit rate 1.8% among 300,000; AID 540276; Potency, µM (series often up to 37.8 µM), without a hit: top-dose activity change, negative = inhibition, actives largely listed as inhibitors; active = well fitted inhibition curve with a large enough effect; inconclusive = small, poorly fitted or top-dose-only effect, or effect the other way; inactive = flat fitted curve, though single readings scatter; tested in HEK293 cells; about a fifth of its hits are not listed in these tables; also: % is scaled to controls: 0 for no effect and ±100 for the full control effect; luciferase read-out
NS1 inh: influenza NS1 inhibition | AID 2326 | S. cerevisiae slowed by influenza A NS1, growth recovery by OD600 | hit rate 0.4% among 270,000 | Potency, µM (doses to about 46.1 µM), inactives show at the top dose activity, positive = more growth; also: actives are rising curves; nearly all actives have a fitted effect of over 50% in size
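OD600 was taken as the measure of yeast growth restored by compound in an NS1-expressing S. cerevisiae strain. Cells had been washed out of glucose medium and diluted 1:100 into galactose -URA medium, pH 6.0.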
* marks the source's active call; other numbers are inactive results; u = inconclusive; x = not tested or not shown; & = joins results of further samples; [ ] = dose if it differs, or a comment. Unless noted, calls follow the shape of the dose curve; as a rule, active means well fitted rising curve with a large enough effect; inconclusive means small, poorly fitted or top-dose-only effect; inactive means no such curve, though single readings can be large or run the other way. Potency is read from the fitted curve at half-maximal effect.

compound	Lassa entry inh	SARS PLpro yeast	Cruzain Triton	RE007 growth inh	StopGo reporter	Cruzain inh noDet	MARV entry inh	NS1 inh
COc1cccc(-c2nc(SCC(=O)Nc3nc(-c4ccccc4)c(C)s3)[nH]c(=O)c2C#N)c1	6%	1%	x	16%	-9%	x	u	15%
S=C(Nc1ccccc1)N1N=CCC1c1ccccc1 (stereo unspecified)	4%	-8%	-1.0%	-11%	49%[activator]	1%	13%	4%
COc1cc(C(=O)NC(=S)NNC(=O)c2cnccn2)cc(OC)c1OC	u	u	3.9%	13%	-10%	-14%	u	-31%
C=CCNc1nc(C(=O)OCC)nc2ccccc12	x	1%	x	-17%	-10%	x	x	-1%
O=C(CCCCn1c(=S)[nH]c2ccsc2c1=O)NCc1ccco1	-8%	3%	6.6%	1%	42%[activator]	-4%	-21%	10%
Cc1cc(C(=O)Nc2ccccc2)c2ccccc2n1	x	3%	x	-6%	-15%	x	x	11%
COCCn1c(SCC(=O)Nc2ccc3c(c2)OCCO3)nnc1-c1c[nH]c2ccccc12	u	1%	4.6%	-2%	9%	8%	2%	-11%
COc1ccccc1N1C(=O)c2cccc3c(N(C)CCO)ccc(c23)C1=O	-4%[46.1 µM]	1%	x	-16%	-15%	x	15%[46.1 µM]	13%
Cc1ccc(C)c(N(C)C(=O)COc2cc(=O)n(C)c3ccccc23)c1	x	7%	1.4%	-16%	-22%	-3%	1%	-5%
CCc1cccc(C)c1NC(=O)Cn1cc2c(n1)CCCC2	-19%[46.1 µM]	x	-2.2%	x	-29%	-8%	14%[46.1 µM]	x
COc1ccc(COC(=O)C2=C(C)NC(=O)NC2c2ccccc2OC(C)C)cc1 (stereo unspecified)	u	2%	x	-8%	u	x	0%	u
O=C(CN(Cc1ccccc1C(F)(F)F)C(=O)CNC(=O)c1ccco1)NC1CCCC1	5%	-6%	3.1%	-6%	7%	4%	1%[46.1 µM]	-11%
Cc1nn(Cc2ccccc2)c(C)c1NC(=O)CSc1nc(-c2ccccc2)nc2c1cnn2-c1ccccc1	6%	3%	3.8%	-2%	-16%	-8%	4%	-5%
Cc1nc(Cc2ccccc2)sc1CC#N	u	x	x	3%	-1%	x	-13%[46.1 µM]	x
COc1cccc(NC(=O)CN(C)C(=O)CCN2C(=O)C3CC=CCC3C2=O)c1 (stereo unspecified)	8%	0%	x	2%	-8%	x	-17%	x
COc1ccccc1N1CCN(c2nc3ccccc3nc2C(C#N)C(=O)OC(C)C)CC1 (stereo unspecified)	u	-1%	-0.1%	-17%	u	u	u	-45%
CCc1nn(-c2cc(Oc3ccccc3)nc(-c3ccccc3)n2)c(N)c1C#N	-1%	14%	-6.0%	-3%	11%	3.2µM*	4%	7%
Cc1ccc(NC2CCCN(C(=O)CCCN3CCCCC3=O)C2)cc1C (stereo unspecified)	9%	-3%	x	2%	8%	x	-15%	9%
CCOc1ccc(CCNC(=O)C2CCCN(c3nnc(C)c4c(C)n(-c5ccccc5)nc34)C2)cc1 (stereo unspecified)	-15%[46.1 µM]	x	-9.7%	x	-16%	-4%	x	x
CC(=O)N1c2ccc(S(=O)(=O)N3CCC(C(=O)NCc4ccc(F)cc4)CC3)cc2CC1C (stereo unspecified)	x	3%	x	2%	-3%	x	x	-2%
COc1cc(C(=O)OCC(=O)Nc2ccc(C)cc2)cc(OC)c1OC	-12%[46.1 µM]	-1%	x	0%	-15%	x	u	0%
Cc1c(CCO)c(=O)n(-c2ccccc2)n1S(=O)(=O)c1ccc([N+](=O)[O-])cc1	1%	4%	x	-4%	-11%	x	u	4%
Clc1ccc(Cn2cc(/C=N/n3cnnc3)c3ccccc32)c(Cl)c1	u	-8%	-4.7%	-4%	u	4%	u	0%
CCN1CCCC1CN(Cc1cc2ccc(C)cc2[nH]c1=O)C(=S)Nc1ccc(OC)cc1OC (stereo unspecified)	-3%	-10%	-5.4%	1%	11%	-15%	u	20%
C/C(=N\OCC(=O)OCC(=O)NC(=O)c1ccccc1)c1ccc2c(c1)OCO2	3%	0%	x	2%	-7%	x	-2%[46.1 µM]	x
Cc1ccc(NC(=O)CCN2CCN(CCO)CC2)cc1	-11%[46.1 µM]	x	x	8%	-2%	x	1%[46.1 µM]	x
COc1cc(C(=O)OCCc2c(C)nc3nc[nH]n3c2=O)cc(OC)c1OC	-6%	1%	x	-11%	-6%	x	-8%[46.1 µM]	x
Cc1csc(=O)n1CCC(=O)OCC(=O)NNC(=O)c1ccc(Br)cc1	9%	0%	x	8%	3%	x	16%	x
CC(=O)c1nnn(-c2ccc(F)cc2F)c1C	2%[46.1 µM]	1%	x	4%	36%[activator]	x	1%[46.1 µM]	9%
CCc1ccc(Cn2nnc(C(=O)Nc3ccc(OC)cc3OC)c2N)cc1	x	-3%	1.9%	6%	-6%	25µM*	x	2%
Cc1c(NC(=O)CSc2nnc(-c3ccco3)n2-c2ccccc2)c(=O)n(-c2ccccc2)n1C	0%	-1%	7.0%	6%	-10%	-2%	-4%&-4%	10%
O=C(NCC(=O)N(c1ccccc1)C(C(=O)NCC1CCCO1)c1ccccc1)c1cccs1 (stereo unspecified)	-18%	-1%	x	-2%	6%	x	-15%[46.1 µM]	-5%
CC(=O)NC(C)C12CC3CC(CC(C(=O)O)(C3)C1)C2 (stereo unspecified)	4%	1%	8.1%	1%	16%	3%	6%	0%
Cc1ccccc1C(=O)NCCc1sc(-c2ccc(Cl)cc2)nc1C	u	x	-3.4%	x	-5%	-9%	x	x
O=c1c2sccc2nc(SCc2cc(=O)n3cc(Cl)ccc3n2)n1Cc1ccccn1	8%	0%	x	40%	24%	x	-5%[46.1 µM]	x
CC(=O)c1ccc(Sc2ccc(C(C)=O)cc2)cc1	u	1%	-4.5%	x	-18%	7%	12%	9%
Cc1nn(CC(=O)N2CCOCC2)c(C)c1[N+](=O)[O-]	7%	-3%	2.0%	-10%	-4%	-7%	u	-5%
Fc1ccc(C(c2nnc(-c3ccccc3)o2)N2CCN(c3cccc(Cl)c3)CC2)cc1 (stereo unspecified)	-24%[46.1 µM]	x	-4.1%	x	-32%	-18%	x	x
COc1ccc(CCNS(=O)(=O)c2ccc(N3CCCCS3(=O)=O)cc2)cc1OC	-9%[46.1 µM]	x	0.1%	x	-29%	-1%	x	x
CCc1[nH]nc2c1C(Cc1ccccc1)C(C#N)=C(N)O2 (stereo unspecified)	-6%	-1%	0.9%	8%	0%	-3%	10%	-1%
CCOC(=O)N1CCN(C(=S)NC)CC1	-1%	7%	0.2%	10%	15%	1%	28%	0%
COc1ccc(C2C3=C(N=C4SCC(=O)N42)c2ccccc2CC3)cc1 (stereo unspecified)	-18%	1%	-1.9%	-11%	-16%	u	u	7%
CC1(C)CC2CC(C)(CN2C(=O)COC(=O)c2cccc([N+](=O)[O-])c2)C1 (stereo unspecified)	1%	3%	x	21%	-13%	x	4%	x
Cc1nn(C(=O)c2ccco2)c(C)c1Sc1ccc(Cl)cc1	10%	6%	-5.8%	-15%	-5%	-7%	-11%	5%
O=C(Nc1ccc(-c2nc3cccnc3s2)cc1)c1ccc(Cl)nc1	14%	-1%	x	-5%	30%[activator]	x	4%[46.1 µM]	-1%
CC(=O)N1CCN(Cc2ccc(Br)s2)CC1	8%	4%	-1.4%	15%	3%	-8%	12%	6%[9.22 µM]
CCn1ncc([N+](=O)[O-])c1C(=O)n1nc(C)cc1C	u	-12%	-3.4%	11%	49%[activator]	21%	u	1%

Rewritten with each value named: entries from further up.
> Cc1nn(C(=O)c2ccco2)c(C)c1Sc1ccc(Cl)cc1
  Lassa entry inh = 10% | SARS PLpro yeast = 6% | Cruzain Triton = -5.8% | RE007 growth inh = -15% | StopGo reporter = -5% | Cruzain inh noDet = -7% | MARV entry inh = -11% | NS1 inh = 5%

> O=C(Nc1ccc(-c2nc3cccnc3s2)cc1)c1ccc(Cl)nc1
  Lassa entry inh = 14% | SARS PLpro yeast = -1% | Cruzain Triton = x | RE007 growth inh = -5% | StopGo reporter = 30%[activator] | Cruzain inh noDet = x | MARV entry inh = 4%[46.1 µM] | NS1 inh = -1%

> CC(=O)N1CCN(Cc2ccc(Br)s2)CC1
  Lassa entry inh = 8% | SARS PLpro yeast = 4% | Cruzain Triton = -1.4% | RE007 growth inh = 15% | StopGo reporter = 3% | Cruzain inh noDet = -8% | MARV entry inh = 12% | NS1 inh = 6%[9.22 µM]

> CCn1ncc([N+](=O)[O-])c1C(=O)n1nc(C)cc1C
  Lassa entry inh = u | SARS PLpro yeast = -12% | Cruzain Triton = -3.4% | RE007 growth inh = 11% | StopGo reporter = 49%[activator] | Cruzain inh noDet = 21% | MARV entry inh = u | NS1 inh = 1%

Rows are unselected (roughly 4.7% active in at least one column).
